Bioassay records deposited in PubChem by National Center for Advancing Translational Sciences (NCATS).
2A StopGo = High Throughput Screening for Foot and Mouth Disease Virus Antivirals | human cells with a luciferase reporter of 2A StopGo recoding; control for the full effect not named in the record | Potency, µM (highest dose often 57.9 µM), without a hit: at the top dose signal change, negative = less light | hit rate 1.2% among 410,000 | AID 1159524, 2015; active = well fitted falling curve with a large enough effect; inconclusive = small, poorly fitted or top-dose-only effect; inactive = no such curve, though single readings can be large or run the other way; tested in HEK293T cells; further: nearly all actives have a fitted effect of over 45% in size; luciferase light after 4 h
RE007 growth inh = qHTS Assay for Inhibitors of the HIV-1 protein Vpr | S. pombe RE007 Vpr strain, BacTiter-Glo ATP luminescence, 24 h; control for the full effect not named in the record | Potency, µM (titrated, usually from 92.2 µM), inactives show top-dose activity change, negative = less growth | hit rate 0.21% among 360,000 | AID 651644, 2012; active = well fitted falling curve with a large enough effect; inconclusive = small, poorly fitted or top-dose-only effect; inactive = no such curve, though single readings can be large or run the other way;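 further: nearly all actives have a fitted effect of over 50% in size; the assay follows cell death caused by Vpr and the record does not say whether a fall means rescue or toxicity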
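Fission yeast strain RE007, carrying one chromosomally integrated HIV-1 vpr copy, was seeded at OD 0.01 in PMG+AL medium with 23 nL pinned compound. After 24 h at 30 °C and 99% humidity, viability was read by BacTiter-Glo luminescence.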
* = called active by the depositor; [ ] = remark or other dose. On the % scale 0 is the no-effect control and ±100 the full control effect; potency means the concentration at half of the fitted maximal effect.

For CSc1ncnc2c1ncn2CCCNC1CCN(Cc2ccccc2)CC1 the results were 2A StopGo -29% and RE007 growth inh -22%.
For CCN1C(=O)NC(c2ccccc2)C1=O (stereo not drawn) the results were 2A StopGo -12% and RE007 growth inh 2%.
Screening Cc1cccc(COC[C@H](Cc2ccccc2)N2CCN(C(=O)c3ccc(Cl)c(Cl)c3)CCC2=O)c1 returned 2A StopGo 0% and RE007 growth inh 7%.
For NC(Cc1ccccc1)c1csc(Nc2ccccn2)n1 (stereo not drawn) the results were 2A StopGo 14% and RE007 growth inh 0%.
`CCOC(=O)N(C)c1c(CC)nc2c(OCc3cccc(Cl)c3)cccn12` gave 2A StopGo -28% and RE007 growth inh -11%.
Screening CCCCCCn1c(=O)n2n(c1=O)C[C@]1(OC(=O)NCc3ccccc3F)CN(S(=O)(=O)c3ccc(C)cc3)C[C@]1(O)C2 returned 2A StopGo -21% and RE007 growth inh 21%.
For O=c1[nH]cc(S(=O)(=O)N2CCN(c3ccccc3F)CC2)c(=O)[nH]1 the results were 2A StopGo -9% and RE007 growth inh -5%.
`COCCCNC(=O)c1cc(Cc2ccccc2)sc1N` gave 2A StopGo 0% and RE007 growth inh -22%.
`C[C@@H]1CN([C@H](C)CO)C(=O)CCCn2nncc2CO[C@H]1CN(C)C(=O)C1CC1` gave 2A StopGo -24% and RE007 growth inh 4%.
For O=C(OCc1ccccc1)N1CCC2CC1c1cc(N3CCN(S(=O)(=O)c4cc(Cl)cc(Cl)c4)CC3)ccc12 (stereo not drawn) the results were 2A StopGo -14% and RE007 growth inh -11%.
Cc1ccc(NC(=O)C2(C)CCN2C(=O)C2(c3ccc(Cl)cc3)CC2)cc1 (stereo not drawn) was read as 2A StopGo -27% and RE007 growth inh -12%[18.4 µM].
CC(C)C[C@@H](CNCC(=O)[C@H](Cc1c[nH]c2ccccc12)NC(=O)c1[nH]cnc1C(=O)N[C@@H](C)CN)NC(=O)c1nc[nH]c1C(=O)N[C@@H](CC(=O)O)C(=O)O was read as 2A StopGo -15% and RE007 growth inh -17%.
Screening O=C(c1ccc2c(c1)CCC2)N1CCN(Cc2c(F)cccc2Cl)CC1 returned 2A StopGo -28% and RE007 growth inh 1%.
Screening Cc1ccc(S(=O)(=O)N2CCOCC2)cc1NC(=O)COC(=O)COc1ccc(C#N)cc1 returned 2A StopGo -22% and RE007 growth inh -5%.
Screening Cc1ccccc1Cn1c(C)c(C(=O)NCCC#N)sc1=O returned 2A StopGo -19% and RE007 growth inh 4%[18.4 µM].

5 compounds picked at random from those above, as already listed:
For O=c1[nH]cc(S(=O)(=O)N2CCN(c3ccccc3F)CC2)c(=O)[nH]1 the results were 2A StopGo -9% and RE007 growth inh -5%.
`CCOC(=O)N(C)c1c(CC)nc2c(OCc3cccc(Cl)c3)cccn12` gave 2A StopGo -28% and RE007 growth inh -11%.
Screening CCCCCCn1c(=O)n2n(c1=O)C[C@]1(OC(=O)NCc3ccccc3F)CN(S(=O)(=O)c3ccc(C)cc3)C[C@]1(O)C2 returned 2A StopGo -21% and RE007 growth inh 21%.
For O=C(OCc1ccccc1)N1CCC2CC1c1cc(N3CCN(S(=O)(=O)c4cc(Cl)cc(Cl)c4)CC3)ccc12 (stereo not drawn) the results were 2A StopGo -14% and RE007 growth inh -11%.
For CSc1ncnc2c1ncn2CCCNC1CCN(Cc2ccccc2)CC1 the results were 2A StopGo -29% and RE007 growth inh -22%.

(further entries)
`C[C@H]1CN([C@@H](C)CO)S(=O)(=O)c2ccc(Br)cc2O[C@H]1CN(C)C(=O)NC1CCCCC1` gave 2A StopGo 9% and RE007 growth inh 3%.
For Cc1cn([C@H]2C[C@H](O)[C@@H](CCC(=O)NCc3ccc(N(C)C)cc3)O2)c(=O)[nH]c1=O the results were 2A StopGo -24% and RE007 growth inh 0%.
For CCCCNC(=O)C[C@@H]1C[C@@]2(C(=O)OC)CCCCC=C2N(CCC2=CCCCC2)C1=O the results were 2A StopGo 0% and RE007 growth inh -7%.
Screening O=C(CCNC(=O)c1ccc([N+](=O)[O-])cc1)Nc1cc(C(F)(F)F)ccc1N1CCOCC1 returned 2A StopGo -16% and RE007 growth inh -8%.
Screening CCc1nc2c(OCc3ccc(C(=O)OC)cc3)cccn2c1N(C)C(=O)c1ccc(OC)cc1 returned 2A StopGo -12% and RE007 growth inh 0%.
Screening Cc1ccc(CN2CCC2(C)C(=O)NC2CCc3ccccc32)cc1 (stereo not drawn) returned 2A StopGo -12% and RE007 growth inh -14%[18.4 µM].
For C=CCn1c(C(C)n2c(-c3cnccn3)nc3ccccc32)nc2ccccc21 (stereo not drawn) the results were 2A StopGo -16% and RE007 growth inh -22%.
For CC1(C(=O)NS(=O)(=O)c2ccc(Cl)cc2)CCN1C(=O)C1(c2ccc(Cl)cc2)CCC1 (stereo not drawn) the results were 2A StopGo -1% and RE007 growth inh 18%.
For CS(=O)(=O)Nc1ccc2c(c1)[C@H]1C[C@H](CC(=O)NCc3ccccc3)O[C@H](CO)[C@H]1O2 the results were 2A StopGo -8% and RE007 growth inh -18%.
Screening Cc1c(N=O)c(-c2ccccc2)n(O)[n+]1[O-] returned 2A StopGo -9% and RE007 growth inh -11%.
`CC1(C(=O)NS(=O)(=O)Cc2cccc(Cl)c2)CCN1C(=O)CC1CCCC1` (stereo not drawn) gave 2A StopGo -20% and RE007 growth inh 3%.
`CC1(C(=O)NS(=O)(=O)c2ccccc2)CCN1C(=O)C1(c2ccc(Cl)cc2)CC1` (stereo not drawn) gave 2A StopGo 25% and RE007 growth inh 8%.
Screening Cc1ccccc1NC(=O)Nc1nnc([C@@H]2C[C@H](O)[C@@H](CO)O2)s1 returned 2A StopGo 1% and RE007 growth inh -6%[18.4 µM].
For CS(=O)(=O)c1ccc(Nc2nc(C(N)Cc3ccc(C(F)(F)F)cc3)cs2)cc1 (stereo not drawn) the results were 2A StopGo -22% and RE007 growth inh -6%[18.4 µM].
`C=CCCC(=O)N1C[C@H]2CON(C)[C@H]2C[C@H]1c1ccc(-n2ccnc2)cc1` gave 2A StopGo -10% and RE007 growth inh -6%.
`C[C@H](O)[C@@H]1C(=O)N2CCc3ccc(N4CCOCC4)cc3[C@@H]2C[C@@H]1N(C)S(=O)(=O)c1ccccc1` gave 2A StopGo 4% and RE007 growth inh 11%.
For COc1ccc(CCN2C(=O)COc3ccccc3C2C(=O)NCc2ccccc2)cc1OC (stereo not drawn) the results were 2A StopGo -4% and RE007 growth inh 12%.
For Nc1ccn([C@@H]2O[C@H](C(=O)N[C@H](COC=O)Cc3ccccc3)[C@@H](O)[C@H]2O)c(=O)n1 the results were 2A StopGo -14% and RE007 growth inh 1%.
CCOC(=O)c1ccc(N2Cc3ccccc3C2=NC(=O)c2cccc([N+](=O)[O-])c2)cc1 was read as 2A StopGo 39%[activator] and RE007 growth inh 1%.
Screening NC(=S)NN=Cc1cc(-c2cccc(N)c2)ccn1 returned 2A StopGo 0% and RE007 growth inh -11%.
Screening CCOc1ccc(Cl)cc1-c1cc(C(=O)Nc2ccc(F)cc2)[nH]n1 returned 2A StopGo -16% and RE007 growth inh 8%.
COC(C[C@H](O)C[C@H](O)[C@@H](C)OCc1ccccc1)OC was read as 2A StopGo -15% and RE007 growth inh 3%.
COc1ccccc1CNc1nc2cc(-c3ccc(OC)c(OC)c3)sc2c(=O)n1C was read as 2A StopGo inconclusive and RE007 growth inh -5%[18.4 µM].
Cc1c(C(=O)N(C)Cc2ccc(F)cc2)sc(=O)n1Cc1ccccc1C#N was read as 2A StopGo inconclusive and RE007 growth inh -7%[18.4 µM].
`COC(=O)c1cccc(NC(=O)c2ccc(S(=O)(=O)N(C)c3ccccc3OC)cc2)c1` gave 2A StopGo 35µM* and RE007 growth inh 11%.
For CCc1nc2c(OCc3ccccc3C)cccn2c1N(C)C(=O)c1ccco1 the results were 2A StopGo inconclusive and RE007 growth inh -15%.
Screening COc1ccc(S(=O)(=O)NCCCc2ccccc2)cc1 returned 2A StopGo 42%[activator] and RE007 growth inh 1%.
CCCCCC(=O)N1C[C@H](O)[C@@H](n2cc(-c3ccc(F)cc3)nn2)C[C@@H]1c1ccc(Cl)cc1 was read as 2A StopGo inconclusive and RE007 growth inh 4%.
For CCC/C=C/c1ccc(CN2C(CC(C)C)C(=O)N(Cc3cn(CC4CCCCC4)nn3)CCS2(=O)=O)cc1 (stereo not drawn) the results were 2A StopGo -6% and RE007 growth inh -2%.
Screening OC(c1ccc(Cl)c(Cl)c1)c1ncc(-c2ccccc2C(F)(F)F)[nH]1 (stereo not drawn) returned 2A StopGo 50%[activator] and RE007 growth inh -7%[18.4 µM].
CN(C(=O)c1cccc(NC(=O)Cc2ccc(NC(=O)C3CCN(C(=O)c4ccccc4)CC3)cc2)c1)C1CC1 was read as 2A StopGo -17% and RE007 growth inh 1%.
For Cc1ccc(S(=O)(=O)N2C[C@@H](C)[C@]3(C2)[C@H](O)[C@H](OC(=O)NC2CCCC2)C[C@H]2C(=O)N(c4ccccc4)C(=O)[C@H]23)cc1 the results were 2A StopGo inconclusive and RE007 growth inh -10%.
COc1ccc(-n2nnnc2C(c2ccnc3ccccc23)N2CCC(n3c(=O)[nH]c4ccccc43)CC2)cc1 (stereo not drawn) was read as 2A StopGo 0% and RE007 growth inh -2%.
CCc1ccc2c(c1)NC(=O)C2(C)Cc1ccccc1OC (stereo not drawn) was read as 2A StopGo -22% and RE007 growth inh 2%[18.4 µM].
For COC(=O)[C@@]12C[C@@H](CC(=O)NCCCN3CCCC3=O)C(=O)N(Cc3ccc4c(c3)OCO4)C1=CCC(C)(C)C2 the results were 2A StopGo -15% and RE007 growth inh -7%.
Cc1cc(C)c2cc(C#N)c(NCCNC(=O)c3cccnc3)nc2c1 was read as 2A StopGo -11% and RE007 growth inh -4%.
`Fc1ccc(Nc2nnc(-c3ccncc3)s2)cc1Cl` gave 2A StopGo 44%[activator] and RE007 growth inh 1%[18.4 µM].
Screening CCc1ccc([C@@H]2CC(=O)[C@@H]3CN(S(=O)(=O)c4ccccc4)[C@H](c4ccc(OC)cc4)C[C@@H]3N2S(=O)(=O)c2ccc(C)cc2)cc1 returned 2A StopGo -23% and RE007 growth inh -9%.
`COC(=O)c1ccc(CNC(=O)c2ccccc2C(=O)NCC2(CBr)OCCO2)cc1` gave 2A StopGo -10% and RE007 growth inh 12%.
For O=C(NCc1cccnc1)c1cc(C2CCCN(C(=O)c3ccc4c(c3)CCO4)C2)on1 (stereo not drawn) the results were 2A StopGo -25% and RE007 growth inh 2%.
Screening CC(C)NC(=O)c1csc([C@@H]2O[C@H](CO)[C@H](O)[C@H](O)[C@H]2O)n1 returned 2A StopGo -7% and RE007 growth inh -9%[18.4 µM].
For CC(C(=O)N1CCCCC1)N(C)CC(=O)Nc1ccc(F)c(F)c1F (stereo not drawn) the results were 2A StopGo 0% and RE007 growth inh -3%.
Screening CC1=CC(C)C(=O)N(C)C(C)=C1 (stereo not drawn) returned 2A StopGo -18% and RE007 growth inh -20%.
`COc1ccc(C2=Nc3ccccc3NC(=O)C2N(C(=O)c2cc3ccccc3[nH]2)c2ccccc2)cc1` (stereo not drawn) gave 2A StopGo 44%[activator] and RE007 growth inh -3%.
Cc1ccc(-n2nnnc2CNC(=O)C(=O)c2c[nH]c3ccccc23)cc1C was read as 2A StopGo inconclusive and RE007 growth inh 3%.
`CC(=O)NCC1(c2ccccc2)CCN(CC2COc3ccccc3O2)CC1` (stereo not drawn) gave 2A StopGo -13% and RE007 growth inh 2%[18.4 µM].
Screening CCOc1ccc(OCCC(=O)OCC(=O)Nc2cccc(S(=O)(=O)N3CCCCC3)c2)cc1 returned 2A StopGo -13% and RE007 growth inh -6%.
Screening OC[C@H]1OC(O)[C@H](O)[C@@H](O)[C@H]1O (stereo partly drawn) returned 2A StopGo -22% and RE007 growth inh 5%[18.4 µM].
O=C(COC(=O)CCSc1ccccc1)Nc1ccccc1Br was read as 2A StopGo 12% and RE007 growth inh -26%.
CCCS(=O)(=O)NC(=O)C1(C)CCN(C(=O)c2cccnc2Oc2ccccc2)C1 (stereo not drawn) was read as 2A StopGo -21% and RE007 growth inh 16%.
`C[C@H](CO)N1C[C@H](C)[C@H](CN(C)Cc2cccc(C(F)(F)F)c2)OCc2ccccc2-c2c(n(C)c3ccccc23)C1=O` gave 2A StopGo -21% and RE007 growth inh -26%.
`CC(C)(C)c1ccc(CC(=O)N2CCC2(C)C(=O)N2CCCCC2)cc1` (stereo not drawn) gave 2A StopGo 3% and RE007 growth inh 4%.
`CCCN(C)C1CN(Cc2cn(CCCC(=O)OC)nn2)S(=O)(=O)C1` (stereo not drawn) gave 2A StopGo -15% and RE007 growth inh 2%.
Screening COC(=O)[C@@]12C[C@@H](CC(=O)N3CCCC3)C(=O)N(Cc3cccc4ccccc34)C1=CCC(C)(C)C2 returned 2A StopGo -12% and RE007 growth inh 0%.
O=C(NCCC1=CCCCC1)c1[nH]c(C(F)(F)F)nc1-c1ccccc1 was read as 2A StopGo inconclusive and RE007 growth inh 2%.
Screening Cc1ccc(S(=O)(=O)N2C[C@H]3C(=O)C[C@@H](c4cccc(C)c4)N(S(=O)(=O)c4ccc(C)cc4)[C@H]3C[C@H]2c2ccccc2)cc1 returned 2A StopGo -15% and RE007 growth inh 0%.

This is a subset. The share of hits here may be higher or lower than overall.
